CDC25B-CDK2 inh: primary biochemical HTRF screen for blockers of M-phase inducer phosphatase 2 binding to CDK2/cyclin A | z-score (test concentration not listed) | actives 0.72% (n = 94,000) | AID 1259370, 2018 | HTRF CDC25B-CDK2/CyclinA binding, anti-His/anti-Flag; active compounds read high | P30305+P24941;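 note: score is relative to mean and SD of negative controls; strong numbers were not always called active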
HIV TAR-Tat: TAR RNA-Tat peptide displacers, HIV-1, primary screen, biochemical, FRET, FAM/TAMRA-labeled Tat. HIV-1 TAR RNA, Tat peptide displacement FRET; active compounds read high. AID 1259389, 2018. z-score (concentration not given with the values). actives 0.6% (n = 100,000);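 note: score is relative to mean and SD of negative controls; some compounds called inactive have numbers as strong as hits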
* marks the source's active call; other numbers are inactive results; · = no result given.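 Rule for the calls: active = z-score from 3 up in half or more of its runs; inactive = the rest.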

Structure,CDC25B-CDK2 inh,HIV TAR-Tat
COc1cc(C(F)(F)F)cc(C(F)(F)F)c1C(=O)NCc1cccs1,-3.2,·
CN1N=C(c2c(O)n(C)c(=O)n(C)c2=O)CC1c1ccc(Cl)cc1 (configuration not stated),-3.2,2.7
Cn1nc(C(C)(C)C)c(NC(=O)c2cccnc2)c1C(C)(C)C,-1.4,·
CC1CC(C)(C)N(C(=O)CN2C(=O)CCC2=O)c2ccccc21 (configuration not stated),-0.61,1.9
O=C(CSc1n[nH]c(=O)n1-c1cccc(F)c1)Nc1ccc(Cl)cc1,-0.5,·
CCCn1c(Cn2ccnc2C)nc2cc(NC(=O)CC(C)C)ccc21,-1.9,0.91
Cc1ccc(N2C(=O)c3nccnc3C2=O)cc1Cl,-1.5,2.8
O=C(CSc1nc2c(cnn2-c2ccc(Cl)cc2)c(=O)[nH]1)N1CCN(c2ccccc2)CC1,·,0.88
O=C(c1ccc(Cn2c(=O)c(=O)[nH]c3cccnc32)cc1)N1CCN(c2ncccn2)CC1,·,1.4
Cc1cc(C)cc(NC(=O)N2c3ccccc3NC3=C(C(=O)CCC3)C2c2cccs2)c1 (configuration not stated),·,1.8
O=C(Nc1nonc1-c1ccc(Cl)cc1)C1COc2ccccc2O1 (configuration not stated),-0.95,-0.52
Cn1cccc1CN1CCN(Cc2ccccc2)CC1,-0.66,1.9
COCCNc1cc(N2CCCC(C)C2)c2noc3c2c1C(=O)c1ccccc1-3 (configuration not stated),-0.99,-1.1
CCCCN(CCCC)C(=O)c1sc2nc(N3CCOCC3)c3c(c2c1N)CC(C)(C)OC3,-0.38,1
CCOc1cc(/C=C2\N=C(SCC)SC2=O)cc(Br)c1OC(C)=O,-0.99,0.5
O=c1c(NC2CCCC2)c(-c2ccc(Cl)cc2)c1=O,·,-1.5
COc1ccc(-c2c(C)nn3c(-c4ccccc4)cc(C)nc23)cc1OC,-1.1,1.4
Cc1ccc2c(c1)nc(-n1nc(C)cc1C)c1nncn12,-2.1,·
CCOC(=O)NC(C(F)(F)F)(C(F)(F)F)P(=O)(c1ccccc1)c1ccccc1,-0.15,·
CN(C)c1ccc(CN(CC2CCCO2)C(=O)c2cc(-c3ccc(Cl)cc3)on2)cc1 (configuration not stated),-0.8,2.2
Cc1[nH]c(C)c(S(=O)(=O)Nc2ccc(Cl)cc2F)c1C(=O)N1CCCC1,·,-1.8
CC(C)Cc1ccc(C(C)C(=O)Nc2nn(C)c3ccccc23)cc1 (configuration not stated),-0.85,·
Cc1cc(Oc2ccc(=O)n(C)n2)nc(SCC(=O)Nc2ccc(Cl)cc2)n1,-0.94,1.2
Cc1cccc2nc(C(F)(F)F)nc(=O)n12,-1.9,·
CCOC(=O)c1sc(N2C(=O)c3oc4ccc(F)cc4c(=O)c3C2c2ccc(C)cc2)nc1C (configuration not stated),-0.69,1.4
CC(C)C(=O)n1nc(-c2ccco2)nc1NCc1cccs1,0.01,-0.88
Cc1ccc(N2C(=O)c3ccncc3C2=O)c(Cl)c1,-0.91,-0.01
O=C(Nc1ccccc1)N1CCc2sccc2C1c1ccc(C(F)(F)F)cc1 (configuration not stated),-1.1,·
Cc1ccc2nc(SCc3nc(-c4ccccc4C)no3)[nH]c2c1,0.96,-0.53
CCOC(=O)c1c(C)n(CC)c2ccc(OC)cc12,1.1,-0.75
O=C(O)Cn1cc(-c2nnco2)c2ccccc21,-1.4,0.49
COCCCN1C(=O)C(=O)/C(=C(\O)c2ccc(OC)cc2)C12C(=O)N(C)c1ccccc12 (configuration not stated),-0.29,1.4
O=C1c2ccncc2C(=O)N1c1ccc(F)cc1F,0.28,1.6
Cn1c(=O)oc2cc(S(=O)(=O)NCc3cccn3Cc3ccc(Cl)cc3)ccc21,·,1.3
COc1cc(NC(=O)COCc2cc(-c3cccs3)on2)c(OC)cc1Cl,·,-1
O=C(Cn1ncn2nc(-c3cccs3)cc2c1=O)NCCCN1CCCC1=O,0.01,0.28
Cc1cc(-c2ccc(C(C)C)c(S(=O)(=O)Nc3ccc4c(c3)OCO4)c2)on1,·,0.33
CCc1nn(CCCC(=O)NCCCN2CCOCC2)c(=O)c2cc3occc3n12,-0.49,0.97
CCOC(=O)c1c(C)sc2c1N(C(C)=O)c1cc(Br)ccc1S2,-0.87,-0.14
CCN(CC)c1ccc(C2C(C#N)=C(C)NC3=C2C(=O)CC(c2ccccc2)C3)cc1 (configuration not stated),-0.8,-7
CC1CCC2(OC1)OC1CC3C4CC[C@H]5C[C@@H](O)CC[C@]5(C)C4CC(=O)[C@]3(C)C1C2C (some centres not stated),·,-0.32
O=c1[nH]c2ccccc2n1C1CCN(S(=O)(=O)c2ccc(F)cc2)CC1,-3.5,0.84
CCc1ccc(CN(C(=O)c2cc(=O)c3cc(CC)ccc3o2)C2CCS(=O)(=O)C2)cc1 (configuration not stated),-1.1,-0.15
CC(CNc1c(-c2ccc3c(c2)CCCC3)c(=O)c1=O)c1ccccc1 (configuration not stated),·,-0.34
CCCn1nc(Oc2nc(NCC)nc(NC(C)C)n2)ccc1=O,-1.2,-0.57
CCN(CCNc1ncnc2onc(-c3ccccc3C)c12)Cc1ccccc1,·,1.1
COc1ccc(S(=O)(=O)N(C)CCc2ccccn2)cc1,-0.17,-4
COc1ccc2cc(C(=O)O)sc(=O)c2c1OC,-1.5,-1.2
COc1ccc(Br)cc1C1SC(NC(C)=O)=NN1C(C)=O (configuration not stated),-0.06,1.4
COCCN1C(=O)/C(=C2/C(=O)N(CC(N)=O)c3ccccc32)SC1=S,-3.9,·
Cc1ccc(-c2c(Nc3cc(C)ccc3C)c(=O)c2=O)cc1,·,2.7
c1ccc(C2=C(c3ccccc3)N3CCN=C3S2)cc1,-1.5,1.2
O=C(O)CCN1CN(CCC(=O)O)c2ccccc21,-0.16,·
CCc1nn(CCCC(=O)NCCCN2CCOCC2)c(=O)c2cc3oc(C)cc3n12,-0.69,1
CC(C)c1ccc(-c2c(N3CCN(C4CCCCC4)CC3)c(=O)c2=O)cc1,·,5.3
COc1ccc(OC)c(CNc2nc(-c3ccc(OC)c(OC)c3)no2)c1,·,-0.03
Cc1nn(CCCC(=O)NC2CCCc3ccccc32)c(=O)c2nccn12 (configuration not stated),-2.2,0.28
COc1cccc(OC)c1OCCNCC1COc2ccccc2O1 (configuration not stated),-1.3,1.3
Cc1nc2ccccn2c1C(=O)NNS(=O)(=O)c1sc2ccc(Cl)cc2c1C,-0.75,·
CC(=O)N1CCSc2ccc(S(=O)(=O)N3CCCc4ccccc43)cc21,·,2.4

Remaining list, next part:
Structure,CDC25B-CDK2 inh,HIV TAR-Tat
CCn1cc(Br)c(C(=O)Nc2nccs2)n1,-3.6,·
CCOC(=O)c1[nH]c2sc(C)c(C)c2c1N,3,-2.7
COc1ccc(Br)cc1C1NC(=O)c2c(sc3c2CCCC3)N1 (configuration not stated),-2.2,-5.6
COc1ccc(NC(=O)c2sc3nc4c(cc3c2N)CCCCCC4)c(OC)c1,-1.6,·
Cc1cc(C)n(Cc2c(C(=O)NC(C)Cc3ccco3)noc2C)n1 (configuration not stated),·,1
Cc1cc(NC(=O)CSc2ccc(Cl)cc2)no1,-1.7,·
N/C(=N\OC(=O)c1ccc(Cl)cc1)c1ccc(S(=O)(=O)N2CCOCC2)cc1,-1.2,·
CCN(CC)C(=O)C1C(=O)N(CCO)C2(C)CC1c1ccccc1O2 (configuration not stated),-0.59,·
CCc1nnc(SCC(=O)Nc2ccc(Br)cc2F)c2cc3oc(C)cc3n12,·,3.5
COc1ccc(-n2nnc(-c3nc(-c4cccs4)no3)c2N)cc1Cl,·,1.2
Cc1cc(C)nc(NS(=O)(=O)c2ccc(NC(=O)c3nn(-c4ccccc4)ccc3=O)cc2)n1,0.19,-0.01
CCc1nn2c(=O)cc(COc3cccc(OC)c3)nc2s1,0.18,0.64
Cc1ccc([N+](=O)[O-])c(C(=O)NCC(=O)O)c1,-1.5,·
CN(C)c1cc(C(F)(F)F)nc2c(Cl)c(C(C)(C)C)nn12,-1.2,·
COc1cc(CNCCSc2nnnn2C)cc(Br)c1OCc1cccnc1,-1.1,1.6
Cc1ccc(-c2nc3nc(C)cc(N4CCC(C)CC4)n3n2)cc1,-0.77,2
CCC(C)NC(=O)c1ccc(C)c(NC(=O)C2=CSCCO2)c1 (configuration not stated),·,2.4
Cc1ccc(OCc2nc3ccccc3n2CC(O)COc2ccccc2)cc1 (configuration not stated),1.6,0.15
O=C(CSc1nnc(-c2ccncc2)n1-c1ccccc1)c1ccccc1,-1.5,1
Cc1nc(N2CCOCC2)ncc1C(=O)NC1CCCC1,·,0.63
O=C1CC(c2ccco2)Cc2[nH]c(=O)c(-c3nc(-c4ccc(Br)cc4)cs3)cc21 (configuration not stated),8.2*,3.7*
COc1ccc(C2OCCn3c(-c4ccccc4)c4c(=O)n(C)c(=O)n(C)c4c32)cc1OC (configuration not stated),-1.5,0.86
CCCCC12CN3CC(C)(CN(C1)C3c1ccc(OC)cc1)C2=O (configuration not stated),0.2,-0.08
Cc1ccsc1CCNC(=O)CCc1c(C)nc2c(c(C)nn2C(C)(C)C)c1C,-0.76,1
Cn1ncc2c(Nc3ccccc3)nc(NCCN3CCCCC3)nc21,·,1.8
CCn1nc(C)c(CNC(=O)Nc2cc(C)cc(C)c2)c1C,·,-0.41
O=C(O)c1ccc(Nc2ncnc3scc(-c4ccccc4)c23)cc1,-0.03,0.57
Cc1cc(C)n(CC(=O)Nc2ccc3c(c2)OCCO3)c(=O)c1C#N,·,0.56
O=C(CN1CCN(Cc2ccc(Cl)cc2)C1=O)NCC1COc2ccccc2O1 (configuration not stated),-2.4,-0.32
CCCC(=O)OCc1cnc(C)c2oc(=O)c(-c3nc(-c4ccc(Cl)cc4)no3)cc12,·,-2.6
COC(=O)c1cc(S(=O)(=O)N(CC(C)C)CC(C)C)c[nH]1,·,0.7
O=C(O)CN1C(=O)C2CCCCN2c2ccc(S(=O)(=O)N3CCCCC3)cc21 (configuration not stated),·,1.6
CCCc1c(C)nc2ncnn2c1Nc1ccc(C)c(C)c1,-1.4,1.9
Cc1nn(CCCC(=O)N2CCN(Cc3ccc4c(c3)OCO4)CC2)c(=O)c2cc3occc3n12,-0.31,1.7
COc1ccc(NC(=O)c2cnc3sc(N4CCOCC4)nn3c2=O)cc1,·,0.11
Cc1ccc(CN(C(=O)c2oc3cc(Br)ccc3c2C)C2CCS(=O)(=O)C2)o1 (configuration not stated),-0.47,2.5
O=C(CN1CCCC1)N1c2ccccc2C=Cc2ccccc21,-1.9,-1.1
O=C(Nc1ccc2c(c1)OCCO2)c1c2c(nc3ccccc13)C(=O)N(C1CCCCC1)C2,·,-0.19
Cc1ccc(Cn2ccc(NC(=O)C3=CC(c4ccco4)=NS(=O)(=O)N3C)n2)cc1,-1.5,1.1
COc1cc(C2c3c(oc4cc(C)c(C)cc4c3=O)C(=O)N2CCCN(C)C)ccc1OCC(C)C (configuration not stated),-0.19,1.4
COc1ccc(NC(=O)/C(C#N)=C/c2ncc([N+](=O)[O-])n2C)c(OC)c1,-0.86,·
O=C(NCC1CCCO1)c1ccc2c(c1)CCN2S(=O)(=O)c1ccccc1 (configuration not stated),-0.75,0.3
COc1ccc(NC(=O)NCc2nnnn2-c2ccccc2)cc1OC,·,1.5
O=C(Cn1cc(S(=O)(=O)c2ccc(F)cc2)c(=O)c2cc(Cl)ccc21)Nc1ccc(F)cc1,-0.83,-2.5
O=C1c2cccnc2C(O)N1C1CCCCC1 (configuration not stated),-1.8,0.65
O=C(CCS(=O)(=O)c1cc2c3c(c1)CCN3C(=O)CC2)N1CCN(c2ccccc2)CC1,·,1.8
CC12CN3CC(C)(CN(C1)C3c1ccccc1)C2O (configuration not stated),-0.49,-0.38
CCc1cc2c(cc3c(=O)n(CC(=O)N4CCCCCC4)ncn32)s1,-2.8,·
CCCCN1C(=O)C(O)(CC(=O)c2ccccc2)c2cc(Br)ccc21 (configuration not stated),-0.99,·
CCOC(=O)c1sc(=S)n(-c2cccc(SC)c2)c1N,·,3.1
CCOC(=O)/C(C#N)=C/C=C(/c1ccc(Cl)cc1)N1CCSCC1,0.05,·
O=C(c1ccco1)n1nc(-c2ccco2)nc1NCc1cccs1,-0.75,0.32

An excerpt taken from the entries so far, as a working copy:
Structure,CDC25B-CDK2 inh,HIV TAR-Tat
CC(CNc1c(-c2ccc3c(c2)CCCC3)c(=O)c1=O)c1ccccc1 (configuration not stated),·,-0.34
CCCn1nc(Oc2nc(NCC)nc(NC(C)C)n2)ccc1=O,-1.2,-0.57
CCN(CCNc1ncnc2onc(-c3ccccc3C)c12)Cc1ccccc1,·,1.1
COc1ccc(S(=O)(=O)N(C)CCc2ccccn2)cc1,-0.17,-4
COc1ccc2cc(C(=O)O)sc(=O)c2c1OC,-1.5,-1.2
COc1ccc(Br)cc1C1SC(NC(C)=O)=NN1C(C)=O (configuration not stated),-0.06,1.4
COCCN1C(=O)/C(=C2/C(=O)N(CC(N)=O)c3ccccc32)SC1=S,-3.9,·

Bioassay records: PubChem BioAssay, Center for Chemical Genomics, University of Michigan
